CBX7 AlphaScr = CBX7 inhibition, primary AlphaScreen. hit rate 1.1% among 66,000. normalised signal (fraction of DMSO) (no concentration beside the values). AlphaScreen His6-CBX7 / biotin-H3K27me3 peptide binding; active compounds read low; in the data active means normalised signal below about 0.5;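 further: 100 nL library stock added to about 20 µL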
Target sequence (O95931 whole entry, looked up): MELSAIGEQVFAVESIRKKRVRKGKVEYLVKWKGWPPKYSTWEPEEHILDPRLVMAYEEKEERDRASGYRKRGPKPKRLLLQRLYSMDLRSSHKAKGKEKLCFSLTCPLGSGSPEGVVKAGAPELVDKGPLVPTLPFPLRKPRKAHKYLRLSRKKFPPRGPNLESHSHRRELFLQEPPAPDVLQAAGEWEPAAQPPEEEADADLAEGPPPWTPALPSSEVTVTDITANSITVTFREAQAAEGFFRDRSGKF
CBX7 AlphaScr z-score = second read-out of CBX7 AlphaScr, no call of its own (marks repeat the call); z-score; measured here: z-score of CBX7 signal; some inactives read as strong as hits; reference of the scale not given here;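 same signal on another scale; lower means less binding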
An asterisk follows results filed as active; & = joins results of further samples.

SMILES	CBX7 AlphaScr	CBX7 AlphaScr z-score
Cc1cccc(NC(=O)CSc2nnc(Cc3cc(=O)[nH]c(=O)[nH]3)n2-c2ccccc2)c1	1.07	2.38
C=C(C)c1cccc(C(C)(C)NC(=O)N2CCCC(C(N)=O)C2)c1 (centres undefined)	1.04	0.971
CC(NC(=O)CSc1nnnn1-c1ccc(F)cc1)c1ccccc1 (centres undefined)	0.975	-0.244
CNC(=O)c1cc2c(n(-c3ccc(C)cc3)c1=O)CC(C)(C)CC2=O	0.919	-2.18
CC(C)COc1ccc2c(c1)c1c3n2CCNC3CCC1 (centres undefined)	0.793	-8.54
CCOc1ccc2nc(N3CCC(C(=O)N4CCN(c5ccccn5)CC4)CC3)sc2c1	1.02	0.528
Cc1sc2nc(Cc3ccccc3)nc(Nc3ccccc3)c2c1C	1.03	0.938
CCN(CC)S(=O)(=O)c1ccc2c(c1)N(CC(=O)NCCCc1ccccc1)C(=O)CO2	1.14	2.11
Cn1c(=O)[nH]c(=O)c2c1nc(CN1CCOCC1)n2Cc1c(F)cccc1Cl	0.989	-0.409
CC1CCN(S(=O)(=O)c2ccc3c(c2)N(CC(=O)NCCN2CCOCC2)C(=O)CS3)CC1	1.02	0.806
Cc1ccc2c(c1)c(=O)c(S(=O)(=O)c1ccc(Cl)cc1)cn2CC(=O)Nc1ccc(F)cc1	0.931	-2.24
O=C(c1cc(-c2ccc3c(c2)OCO3)on1)N1CCc2ccccc2C1	0.866	-1.85

Shown field by field: part of the list above.
C=C(C)c1cccc(C(C)(C)NC(=O)N2CCCC(C(N)=O)C2)c1 (centres undefined)
  CBX7 AlphaScr = 1.04	CBX7 AlphaScr z-score = 0.971

CC(NC(=O)CSc1nnnn1-c1ccc(F)cc1)c1ccccc1 (centres undefined)
  CBX7 AlphaScr = 0.975	CBX7 AlphaScr z-score = -0.244

The list goes on:
SMILES	CBX7 AlphaScr	CBX7 AlphaScr z-score
CCCOc1ccc(C(O)(CCC)CCN2CCCCC2)cc1 (centres undefined)	1.11	2.31
CCCCCCOc1ccc(N2C(=O)CC(NCCc3ccc(S(N)(=O)=O)cc3)C2=O)cc1 (centres undefined)	1.02	0.656
O=C1c2ccccc2C(=O)N1CC(O)COc1ccccc1 (centres undefined)	1.05	0.138
O=C(C1CC(c2ccc(F)cc2)=NO1)N1CCN(c2ccccc2)CC1 (centres undefined)	1.03	1.31
Cc1ccc(CNC(=O)CCC2=NS(=O)(=O)c3ccccc3N2)cc1	1.06	1.32
COc1ccc(-n2c(Cc3cc(=O)[nH]c(=O)[nH]3)nnc2SCC(=O)Nc2cccc(F)c2)cc1	0.838	-2.48
CCc1nc2ccccc2n1CC(O)COCC1CC=CCC1 (centres undefined)	0.979	-0.327
CN(CCNC(=O)CC(C(=O)N1CCc2ccccc21)n1ccnc1)Cc1ccccc1 (centres undefined)	0.711	-7.19
O=C(Nc1ccc(Br)cc1F)C1CCCN(S(=O)(=O)c2cccc3cccnc23)C1 (centres undefined)	0.998	-0.0565
COc1cccc(-c2nnc(-c3cc4cc(Br)ccc4oc3=O)o2)c1	1.13	2.57
O=c1c(S(=O)(=O)c2ccc(F)cc2)c[nH]c2cc3c(cc12)OCO3	1.01	0.472
O=C(c1ccccc1Cl)N1CCN(c2ccc3nnc(-c4ccccc4)n3n2)CC1	0.876	-1.73
COc1ccc(CN2CCN(Cc3ccc(Br)cc3)CC2)c(OC)c1	0.928	-1.8
COc1cc(NC(=O)CCNS(=O)(=O)c2ccc3c(c2)CCC(=O)N3)cc(OC)c1	1.11	2.06
Cc1cccc2c1-c1sc(C(=O)N3CCC(C)CC3)cc1CO2	1.2	6.74
CCCCCOc1ccc(C2NC(=O)NC2=O)cc1 (centres undefined)	1.13	1.88
CCOc1ccc(N2C(=O)c3cccnc3C2Nc2ccc(OC)c(Cl)c2)cc1 (centres undefined)	0.75	-3.21
CCn1c(C(=O)N2CCC(C(=O)NC(C)c3ccc4c(c3)OCCO4)CC2)cc2sccc21 (centres undefined)	0.819	-0.798
COc1ccc(NC(=O)c2cnc(Nc3ccc(C)c(Cl)c3)c3ccccc23)cc1OC	1.05	1.5
CC1(C)NC(=O)N(CC(O)COc2ccccc2)C1=O (centres undefined)	1.02	0.593
c1ccc2c(N3CCOCC3)nc(-c3ccncc3)nc2c1	1.04	0.125
Cc1ccc2nc(-c3cc(NC(=O)c4cc5ccccc5o4)ccc3Cl)oc2c1	0.949	-0.66
Cc1ccccc1OCc1nc(C#N)c(N2CC(C)OC(C)C2)o1 (centres undefined)	0.75	-1.56
CCN(CC)S(=O)(=O)c1ccc2oc(C(=O)NCCCN3CCOCC3)c(C)c2c1	1.3	3

4 entries from above, in markdown.
| SMILES | CBX7 AlphaScr | CBX7 AlphaScr z-score |
| --- | --- | --- |
| CCn1c(C(=O)N2CCC(C(=O)NC(C)c3ccc4c(c3)OCCO4)CC2)cc2sccc21 (centres undefined) | 0.819 | -0.798 |
| COc1ccc(NC(=O)c2cnc(Nc3ccc(C)c(Cl)c3)c3ccccc23)cc1OC | 1.05 | 1.5 |
| CC1(C)NC(=O)N(CC(O)COc2ccccc2)C1=O (centres undefined) | 1.02 | 0.593 |
| c1ccc2c(N3CCOCC3)nc(-c3ccncc3)nc2c1 | 1.04 | 0.125 |

Other entries:
SMILES	CBX7 AlphaScr	CBX7 AlphaScr z-score
Cc1ccc(CN2CCN(CC(=O)NC(C)c3ccc4c(c3)OCCO4)C2=O)cc1 (centres undefined)	0.989	-0.183
CC(C)NC(=O)c1ccc2c(c1)N(Cc1ccccc1)C(=O)c1ccccc1S2(=O)=O	1.23	3.52
Cc1onc(-c2ccccc2)c1C(=O)Nc1ccccc1C#N	1.02	0.488
Cc1ccc(-n2ncc(C(=O)Nc3ccccc3)c2C2CCNCC2)cc1C	0.958	-0.811
O=C(NCc1ccc2c(c1)OCO2)C1CCN(c2nnc(-n3cccc3)s2)CC1	1.01	0.296
COc1ccc(OC)c(-c2cc(C(=O)Nc3ccc(C)cc3)no2)c1	1.32	2.32
CN(C(=O)CN1C(=O)COc2ccc(S(=O)(=O)N3CCOCC3)cc21)C1CCCCC1	1.06	1.82
COc1ccc(-c2cc(C(=O)Nc3cccnc3Cl)no2)cc1	0.98	-0.429
Cn1c(C2CC(=O)N(c3cccc(C(F)(F)F)c3)C2)nc2ccccc21 (centres undefined)	1.15	1.1
CCCN(CCC)CCNc1c(N2CCN(C(=O)OCC)CC2)c(=O)c1=O	1.04	0.699
CCN(Cc1ccccc1)C(=O)CN1C(=O)CSc2ccc(S(=O)(=O)N(CC)CC)cc21	1.03	1.1
COc1ccc(CN2CC(C(=O)NCCCOC(C)C)CC2=O)cc1 (centres undefined)	1.03	0.531
COc1cc(OC)c(NC(=O)Cn2c(C)cc3ccccc3c2=O)cc1Cl	1.09	1.94
O=C(CSc1nc(NCC2CCCO2)c2ccccc2n1)NCc1ccccc1 (centres undefined)	1.02	0.0678
CCCCc1ccc(Nc2nc(-n3nc(C)cc3C)nc(C)c2CC)cc1	0.792&0.957	-2.27&-1.93
N#Cc1c(NC(=O)c2cc(-c3ccc(F)cc3)on2)sc2c1CCCC2	0.953	-0.0555
CCCN1CCN(c2ncc(C(=O)OC)c3ccccc23)CC1	1.04	0.981
COc1ccc(-c2cc(C(=O)NCc3cccs3)no2)cc1OC	1.1	3.36
CCOC(=O)c1c(NC(=O)COc2ccccc2)sc(C(=O)Nc2ccc(OC)cc2)c1C	1.1	1.54
Cc1onc(-c2ccccc2Cl)c1C(=O)Nc1c(-c2ccc(F)cc2)nc2ccccn12	1.05	0.422
O=C(C1CC1)N1CCc2cc(S(=O)(=O)N3CCCCC3c3cccnc3)ccc21 (centres undefined)	0.964	-0.408
Cc1ccc(NC(=O)CSc2nnc(Cc3cccn3C)n2-c2ccc(C)cc2)cc1	0.764	-5.64
Cc1cc(C)c(NC(=O)CN(C)S(=O)(=O)c2cccc3cccnc23)c(C)c1	1	-0.00559
Cc1ccc(C2NC(C(=O)O)Cc3c2[nH]c2ccccc32)cc1 (centres undefined)	1.04	1.65
CCCCNC(=O)CSCc1nc(-c2ccc(CC)cc2)oc1C	1.13	2.35
CCOC(=O)c1cnc2c(ccc3ccccc32)c1NCCCN1CCOCC1	1.14	3.13
COc1ccccc1NC(=O)c1c(NCc2sccc2C)sc2c1CCCCC2	0.551	-6.28
CCCCCCCCc1nnc(NC(=O)Nc2ccc(Br)cc2)s1	1.04	0.61
Nc1ccc2nc(SCC(=O)Nc3ccc(Br)cc3)sc2c1	0.822	-1.27
Cc1noc(C)c1S(=O)(=O)N1CCCC(C(=O)NCCc2ccccc2)C1 (centres undefined)	1.18	2.73
CCOc1ccc(C(=O)Nc2c3c(nn2-c2ccc(Cl)cc2)CSC3)cc1	1.01	0.288
Cc1ccn2c(Nc3ccc4c(c3)OCCO4)c(-c3ccc(Cl)cc3)nc2c1	0.893	-4.02
COc1ccc(C2CC(=O)N(Cc3cccc(F)c3)c3ccccc3S2)cc1OC (centres undefined)	1.02	0.27
CCc1ccc2c(c1)c(=O)c(S(=O)(=O)c1ccc(Cl)cc1)cn2CC(=O)Nc1ccccc1	1.06	2.09
COC(=O)c1cc2sc(Cl)cc2n1CC(=O)Nc1cc(OC)cc(OC)c1	0.993	-0.208
Cc1onc(-c2ccccc2Cl)c1C(=O)N1CCN(c2ccc(F)cc2)CC1	0.92	-0.504
CCn1c(C(Cc2ccccc2)NC(=O)COC)nc2ccccc21 (centres undefined)	0.992	-0.152
Cc1cccc(-n2cc(-c3ccc(Br)cc3)[nH]c2=O)c1	0.979	-0.628
Cc1ccc(S(=O)(=O)CCc2nc3ccccc3n2CCC(=O)NC23CC4CC(CC(C4)C2)C3)cc1	0.965	-1.43
Cc1ccccc1NC(=O)CSCc1cnn(-c2ccccc2)c1-n1cccc1	0.944	-2.52
COc1ccc(Cn2c(CCC(=O)Nc3cc(C)cc(C)c3)nc3cccnc32)cc1	1	0.022
CC(=O)NCCc1nc2ccccc2n1CC(C)C	0.944	-0.814
CN(C)CCn1c2ccccc2n2cc(-c3ccc(-c4ccccc4)cc3)nc12	1.04	0.261
NC(=O)CSc1oc(-c2ccc(F)cc2)nc1S(=O)(=O)c1ccccc1	1.03	0.803
Cc1cccc(C)c1Nc1nc2ccccc2nc1NS(=O)(=O)c1ccccc1	0.874	-3.62
O=C(NCCc1ccc(Cl)cc1)c1ccc2c(c1)N(Cc1c(F)cccc1Cl)C(=O)CS2	0.983	-0.662
O=C(Nc1ccc(-c2nc3ncccc3o2)cc1)c1ccccc1	1.02	0.23
COc1ccc(-c2cc(C(=O)NCc3ccc(Cl)cc3)c3ccccc3n2)cc1	1.04	0.0827

Two of the compounds above, bar-delimited.
Molecule | CBX7 AlphaScr | CBX7 AlphaScr z-score
CN(C)CCn1c2ccccc2n2cc(-c3ccc(-c4ccccc4)cc3)nc12 | 1.04 | 0.261
NC(=O)CSc1oc(-c2ccc(F)cc2)nc1S(=O)(=O)c1ccccc1 | 1.03 | 0.803

Next part
SMILES	CBX7 AlphaScr	CBX7 AlphaScr z-score
CCC(C)NC(=O)CCc1cn(C)c2ccccc12 (centres undefined)	0.979	-0.228
O=C1CCCc2c1[nH]c1ccc(C3CCCCC3)cc21	0.884	-1.77
O=C(O)c1cccc(-n2c(/C=C/c3ccc4c(c3)OCO4)nc3ccccc3c2=O)c1	0.967	-0.781
Cc1cc(N2CCN(C)CC2)nc2ccc(NC(=O)CCC(=O)Nc3ccc(F)cc3)cc12	0.914	-2.01
CCC1Oc2ccc(Cl)cc2N(CC(=O)NCc2ccccc2Cl)C1=O (centres undefined)	1.56	1.14
CCOC(=O)N1CCN(c2c(NCCc3ccc(OC)c(OC)c3)c(=O)c2=O)CC1	1.01	0.224
Cc1cc(C)c(NC(=O)c2cnn(-c3ccc(C)c(C)c3)c2C2CCNCC2)c(C)c1	0.9	-1.92
CCCCN(C)CCNC(=O)C1c2ccccc2C(=O)N2CCc3ccccc3C12 (centres undefined)	1.03	0.855
CCCCOc1ccc(-c2nnc(-c3ccc(-c4ccccc4)cc3)o2)cc1	1.24	2.31
COc1cc2c(C(=O)Nc3ccc(F)c(Cl)c3)cn(C)c(=O)c2cc1OC	1.09	2.98
CCOC(=O)c1cnc2c(C)cccc2c1Nc1cc(C)ccc1OC	1.15	3.34
CCn1c(C(=O)NCc2cccc(OC)c2)cc2sc(Cl)cc21	1.04	1.46
COCCCNC(=O)c1cc(=O)[nH]c2ccc(Br)cc12	0.931	-0.739
CNC(=O)c1ccccc1NC(=O)c1cccc(S(=O)(=O)N2CCCCCC2)c1	1.04	0.415
O=C(Nc1ccc(F)cc1)Nc1ccccn1	0.962	-0.165
Cc1ccc(-c2cc(-c3cccc4nc(C)oc34)n[nH]2)c(O)c1	0.921	-0.279
Cc1cccc2c1-c1sc(C(=O)NCc3ccc(Cl)cc3)cc1CO2	1.05	1.51
CCN1CCN(CCNc2cc(C)nc3c(-c4ccccc4OC)c(C)nn23)CC1	1.1	0.244
Cn1cnc2cc(NCc3ccc(Br)cc3)ccc21	0.912	-2.22
COc1ccc(CN2C(=O)c3ccccc3C2C(=O)NC2CCCCCCC2)cc1 (centres undefined)	0.831	-3.36
Cc1ccc(NC(=O)CCc2c(C)nc3ncnn3c2C)nc1	1.09	1.86
Cc1ccc(-c2nn(CCC(=O)Nc3cccc(Br)c3)c(=O)c3ccccc23)cc1	0.965	-1.06
Cn1c(C(=O)N2CCC(C(=O)N3CCN(c4ccccc4)CC3)CC2)cc2sccc21	1	0.00685
CCC1Oc2ccccc2N(CC(=O)NCCCN(CC)CC)C1=O (centres undefined)	0.861	-1.52
CCOC(=O)c1cnc2ccc(OCC)cc2c1Nc1ccc(N(C)C)cc1	0.535	-4.48
O=C(O)c1c2c(nc3ccc(S(=O)(=O)N4CCC(C(=O)O)CC4)cc13)CCCCC2	1.02	0.602

Screening results from PubChem BioAssay.

This is a subset, so the mix of outcomes need not match the whole.
